CBX7 AlphaScr – blocks human CBX7 binding to H3K27me3 peptide; AID 1224903; normalised signal (fraction of DMSO) (concentration not given with the values); O95931; AlphaScreen His6-CBX7 / biotin-H3K27me3 peptide binding; stronger effect = lower value; 66,000 compounds, 1.1% hits; in the data active = normalised signal below about 0.5;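 also: 100 nL library stock added to about 20 µL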
Target sequence (O95931 whole entry, looked up): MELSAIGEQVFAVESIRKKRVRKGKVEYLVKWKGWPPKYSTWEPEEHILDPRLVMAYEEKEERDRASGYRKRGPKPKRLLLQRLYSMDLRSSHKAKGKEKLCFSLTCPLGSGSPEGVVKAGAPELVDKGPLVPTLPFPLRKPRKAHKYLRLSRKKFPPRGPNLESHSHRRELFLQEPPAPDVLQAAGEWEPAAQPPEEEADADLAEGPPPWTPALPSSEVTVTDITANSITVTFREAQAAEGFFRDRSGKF
CBX7 AlphaScr z-score – also measured in CBX7 AlphaScr; calls as there; z-score; measured here: z-score of CBX7 signal; some inactives read as strong as hits; reference of the scale not given here;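 same signal on another scale; lower means less binding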
Starred values were filed as active, the others as inactive; & = joins results of further samples; ! = not confirmed by another sample.

SMILES	CBX7 AlphaScr	CBX7 AlphaScr z-score
COc1ccc(Nc2cc(C(=O)NCc3cccs3)c3ccccc3n2)cc1	0.83	-2
COc1ccc(S(=O)(=O)CCc2nc3ccccc3[nH]2)cc1	1	1
O=C(O)c1ccc(Nc2nc(-c3ccc(Br)cc3)cs2)cc1	0.97	-0.71
CC1CCN(c2nc3ccc(C(=O)NC4CCN(Cc5ccccc5)CC4)cc3s2)CC1	0.94	-1.2
Cc1ccc(C(=O)NCCNC(=O)Nc2cccnc2)cc1	1.1	1.5
O=C(O)c1cc(=O)c2ccccc2[nH]1	0.82	-2
FC(F)(F)c1cc(-c2cccs2)nc2c(-c3ccc(Cl)cc3)cnn12	0.76	-4.4
Cc1cc(N2CCOCC2)nc2ccc(NC(=O)CCC(=O)N3CC(C)CC(C)C3)cc12 (stereo not drawn)	1	0.031
Cc1ccccc1Nc1nc(-c2c(C)nc3sccn23)cs1	0.4*!	-0.67*!
Cc1ccc(-c2cc(C(F)(F)F)n3nc(C(=O)N4CCCCC4)c(Cl)c3n2)cc1	0.98	-0.12
COc1ccc(N2C(=O)CCC(C(=O)NCC3CCCO3)C2c2ccc(F)cc2)cc1 (stereo not drawn)	1.1	1.1
FC(F)(F)c1cccc(-c2noc(/C=C/c3ccc(Br)cc3)n2)c1	1.2	3
CSc1ccc(/C=C/c2nc3ccccc3n2S(=O)(=O)c2ccc(F)c(C)c2)cc1	2	21
O=C(NCCCN1CCCCC1)C1CC(=O)N(C2CCCCCC2)C1 (stereo not drawn)	0.99	-0.21
COc1ccc(CCNc2oc(COc3ccc(Cl)cc3)nc2C#N)cc1	0.93	-2.9
CCCNC(=O)Cn1cnc2sc(C(=O)Nc3ccc(CC)cc3)c(C)c2c1=O	0.97	-0.72
COc1ccc(C2NC(=O)c3c(sc4c3CCN(C)C4)N2)c(O)c1 (stereo not drawn)	0.73	-4.6
CCOc1ccccc1CN1CCC(CNC(=O)CN2C(=O)CSc3ccccc32)CC1	1	-0.00085
CC(C)NC(=O)CN1C(=O)COc2ccc(S(=O)(=O)N3CCCC3)cc21	1	0.25
CCn1cnc2cc(NCc3ccc(Br)cc3)ccc21	0.96	-1
COc1ccc(C(=O)N(Cc2nc(-c3ccc(C)cc3)no2)C(C)C)cc1	1	-0.047
COc1ccccc1-c1cc2nc(C)c(CCC(=O)NCCN3CCOCC3)c(C)n2n1	0.87	-1.9
Nc1nonc1-c1nc2ccccc2s1	0.82	-2.2
O=C(Nc1cccc(-c2cn3ccccc3n2)c1)c1ccc(Br)cc1	0.98&1.1	-0.39&1.4
CC(C(=O)O)N1C(=O)CC(C)(C)Sc2ccccc21 (stereo not drawn)	0.99	-0.21
O=C(Nc1ccc(Br)cc1F)c1ccc2c(c1)NC(=O)c1ccccc1S2	1	0.51
Cc1cc(N2CCOCC2)nc2ccc(N3C(=O)CCC3=O)cc12	1.1	2.3
O=C(CSc1nnc(-c2cccnc2)n1Cc1ccccc1)Nc1ccccc1	0.99	-0.14
CCSc1nnc(-c2cccnc2)n1-c1ccc(Cl)c(C)c1	1	0.57
COc1ccc(C2C(C(=O)Nc3cccc(C)n3)=C(C)NC3=C2C(=O)CC(C)(C)C3)c(OC)c1 (stereo not drawn)	1.2	0.46
CCN(CC)C(=O)c1c(NC(=O)c2ccccc2Cl)sc2c1CCCC2	0.99	-0.0051
CCOc1ccc(-c2cc(C(=O)NCc3ccncc3)c3ccccc3n2)cc1	0.97	-0.62
CCCOc1ccccc1N1C(=O)CC(Nc2ccc(C)cc2)C1=O (stereo not drawn)	0.85	-3.7
Cc1ccc(C)c(NC(=O)CSc2nccn2-c2ccccc2)c1	0.74	-5.6
Cc1nc2ccc(NC(=O)c3ccc(S(=O)(=O)N4CCCCC4)cc3)cc2s1	2.6	16
CCCCNC(=O)c1cc(C)nn1-c1ccccc1	1.2	2.8

16 consecutive entries out of the list so far, quoted:
SMILES	CBX7 AlphaScr	CBX7 AlphaScr z-score
CC(C)NC(=O)CN1C(=O)COc2ccc(S(=O)(=O)N3CCCC3)cc21	1	0.25
CCn1cnc2cc(NCc3ccc(Br)cc3)ccc21	0.96	-1
COc1ccc(C(=O)N(Cc2nc(-c3ccc(C)cc3)no2)C(C)C)cc1	1	-0.047
COc1ccccc1-c1cc2nc(C)c(CCC(=O)NCCN3CCOCC3)c(C)n2n1	0.87	-1.9
Nc1nonc1-c1nc2ccccc2s1	0.82	-2.2
O=C(Nc1cccc(-c2cn3ccccc3n2)c1)c1ccc(Br)cc1	0.98&1.1	-0.39&1.4
CC(C(=O)O)N1C(=O)CC(C)(C)Sc2ccccc21 (stereo not drawn)	0.99	-0.21
O=C(Nc1ccc(Br)cc1F)c1ccc2c(c1)NC(=O)c1ccccc1S2	1	0.51
Cc1cc(N2CCOCC2)nc2ccc(N3C(=O)CCC3=O)cc12	1.1	2.3
O=C(CSc1nnc(-c2cccnc2)n1Cc1ccccc1)Nc1ccccc1	0.99	-0.14
CCSc1nnc(-c2cccnc2)n1-c1ccc(Cl)c(C)c1	1	0.57
COc1ccc(C2C(C(=O)Nc3cccc(C)n3)=C(C)NC3=C2C(=O)CC(C)(C)C3)c(OC)c1 (stereo not drawn)	1.2	0.46
CCN(CC)C(=O)c1c(NC(=O)c2ccccc2Cl)sc2c1CCCC2	0.99	-0.0051
CCOc1ccc(-c2cc(C(=O)NCc3ccncc3)c3ccccc3n2)cc1	0.97	-0.62
CCCOc1ccccc1N1C(=O)CC(Nc2ccc(C)cc2)C1=O (stereo not drawn)	0.85	-3.7
Cc1ccc(C)c(NC(=O)CSc2nccn2-c2ccccc2)c1	0.74	-5.6

Other compounds follow.
SMILES	CBX7 AlphaScr	CBX7 AlphaScr z-score
O=C(NCc1ccccc1)c1cc2c(s1)CSC2	1.2	1.7
Cc1ccc(C)c2[nH]c(=O)c(CCNC(=O)Cc3cccs3)cc12	1.1	1.7
O=C(CSc1nc(-c2ccc(F)cc2)[nH]c1-c1ccc(F)cc1)Nc1ccc2c(c1)OCCO2	0.84	-0.69
CN1CCN(C(=O)c2cc3c(s2)-c2ccccc2OC3)CC1	1.1	1.5
Cc1ccc(C(=O)Nc2c3c(nn2-c2cccc(Cl)c2)CS(=O)(=O)C3)cc1	0.97	-0.23
O=C(C1=CCN(S(=O)(=O)c2ccc(F)cc2)CC1)N1CCC2(CC1)OCCO2	1	1.5
COc1ccccc1Nc1cc(C(=O)NCCCN(CC(C)C)CC(C)C)c2ccccc2n1	1.4	0.39
CC1CCN(S(=O)(=O)c2ccc3[nH]c(=O)cc(C(=O)NCCc4ccccc4)c3c2)CC1	1.1	2.5
O=C(Nc1ccc(-c2nc3cc(Cl)cc(Cl)c3o2)cc1)c1cccnc1	1	0.64
COc1ccc(Nc2nc(C)nc3sc(C)cc23)cc1Cl	1.1	2.4
Cc1cccc(-c2nc(CN3CCCC(C(=O)NCCCN4CCOCC4)C3)c(C)o2)c1 (stereo not drawn)	1.1	0.47
Cc1cc(Nc2ccc(Cl)cc2)nc(NCc2ccccc2)n1	1.2	0.87
O=C(Nc1ccc(-c2nc3ccccc3o2)cc1)c1ccc(Cl)cc1Cl	0.81	-2.7
Cc1ccc(C)c(N2CCN(C(=O)C3CCCCN3S(=O)(=O)c3ccc(F)cc3)CC2)c1 (stereo not drawn)	0.97	-1.1
CC1CCN(C2CC(=O)N(c3ccc(Cl)cc3)C2=O)CC1 (stereo not drawn)	0.92	-1.2
Cc1ccc2nc(Nc3nc(C)c(C)c(=O)[nH]3)nc(C)c2c1	1.1	1.6
CCOc1ccc(NC(=O)c2c(NCc3cccs3)sc3c2CCCCC3)cc1	0.44*	-7.8*
CCOC(=O)c1ccc(NC(=O)COc2ccc(OC)cc2)cc1	1.3	2.5
CSc1ccc(CCNC(=O)CN2C(=O)CC(C)(C)S(=O)(=O)c3ccccc32)cc1	1	0.041
COc1cccc(NS(=O)(=O)c2ccc3c(c2)n(C)c(=O)c(=O)n3C)c1	0.85	-2.3
CCCN1Cc2cccc(C(=O)Nc3ccccc3C(=O)OC)c2C1=O	1.1	0.06
CCOC(=O)c1cc(-c2nnc(-c3ccc(OC)c(OC)c3)o2)c(C)nc1C	0.89	-1.3
Cc1cccc(CCNC(=O)CN(C)S(=O)(=O)c2cnc[nH]2)c1	1	0.36
CCOC(=O)C1CCN(C(=O)c2ccc(C)c(NC3=NC4CS(=O)(=O)CC4S3)c2)CC1 (stereo not drawn)	1	1.2
COc1ccc2nc(NC(=O)CNC(=O)Cn3ccc4ccccc4c3=O)sc2c1	1.1	3.1
COc1cc(-c2nnc3ccc(C(F)(F)F)cn23)ccc1OCc1ccccc1	1.1	0.92
O=C(CCNC(=O)Cn1ccc2ccccc2c1=O)NCc1ccccn1	0.98	-0.57
CN1CCN(C(=O)c2ccc3c(c2)N(Cc2ccc(Cl)cc2)C(=O)c2ccccc2S3=O)CC1 (stereo not drawn)	1.1	3
Cc1cc(C)nc(N2CCN(c3ncnc4sc5c(c34)CC(C)CC5)CC2)n1 (stereo not drawn)	0.99	-0.3
COc1cc2c(cc1OC)C(c1cccc(Br)c1)CC(=O)N2 (stereo not drawn)	0.85	-1.9
COc1ccc(CNc2sc3c(c2C(=O)Nc2cc(OC)ccc2OC)CCC3)cc1	0.98	-0.24
O=C(c1ccc(C#CC2(O)CCCCC2)cc1)N1CCN(Cc2ccccc2)CC1	0.88	-0.29
Cc1ccc(S(=O)(=O)c2cn(CC(=O)Nc3ccccc3)c3ccc(C)cc3c2=O)cc1	0.97	-1.2
COc1ccc(CNC(=O)c2ccc3c(c2)N(Cc2ccccc2)C(=O)CS3)cc1	0.95	-0.64
Cc1cc(=O)[nH]c(Nc2nc(C)c3cccc(C)c3n2)n1	0.96	-1.2
CCOc1ccccc1C(=O)N1CC(=O)Nc2ccc(C)cc2C1c1ccccc1 (stereo not drawn)	1.1	0.13
Cc1ccccc1-c1nc(CN2CCC(C(=O)NCCC3=CCCCC3)CC2)c(C)o1	1	-0.068
Cc1ccc(NCC(=O)N2CC(=O)Nc3ccccc32)cc1	1	0.027
O=C(CSc1nnc(-c2ccc(Cl)cc2Cl)o1)NCc1ccccc1	1.1	2.6
Cc1nc2sc(C(c3cccs3)N3CC(C)CC(C)C3)c(O)n2n1 (stereo not drawn)	1	1.1
CCn1c(C(=O)N2CCC(C(=O)NCCc3c[nH]c4ccccc34)CC2)cc2sccc21	0.62	-1.7
CC1CCCCN1CCNC(=O)CN1C(=O)CSc2ccc(S(=O)(=O)N3CCCCC3)cc21 (stereo not drawn)	1.1	0.29
CCn1cc(C(=O)Nc2cccc(NC(C)=O)c2)c2cc(OC)c(OC)cc2c1=O	0.99	-0.13
Cc1ccc(CNC(=O)c2cc3c(s2)CSC3)cc1	1.1	0.83
Cc1sc2ncnc(NC3CCCCC3)c2c1S(=O)(=O)N1CCC(C)CC1	0.84	-2
CN1CCc2c(C#N)c(N3CCOCC3)nc(N3CCCC3)c2C1	0.93	-3
COC(=O)CSc1nnc(Cc2cc(=O)[nH]c(=O)[nH]2)n1-c1cccc(C)c1	1	0.15
O=C(CCCN1CCOCC1)NCC1(c2ccccc2)CCCC1	1.1	1.3
COc1ccccc1N1CCN(C(=O)c2n[nH]c(=O)c3ccccc23)CC1	1.2	1.1
COC(=O)Cc1nc(N(C)C2CCCCC2)c2c3c(sc2n1)CCCC3	1.1	1.5
Cc1cc(C)cc(NC(=O)CCCC2=NS(=O)(=O)c3ccccc3N2)c1	0.98	-0.19
COc1ccc(CCNC(=O)C2CCN(Cc3nc(-c4cccc(Cl)c4)oc3C)CC2)cc1OC	1.2	1.6
COc1ccc(/C=c2\sc3nc4cc(Br)cnc4n3c2=O)cc1	0.9	-1.7
CCN1CCN(Cc2ccc(NC(=O)Cn3ncc4c3-c3cc(C)ccc3OC4)cc2)CC1	1	0.37
Cc1csc2ncc(C(=O)Nc3ccccc3C#N)c(=O)n12	1	1.8
COc1ccc(N2Cc3cccc(C(=O)Nc4ccc(OC)c(Cl)c4)c3C2=O)cc1	0.83	-3.1
COc1ccc(Cl)cc1C(=O)Nc1sc2c(c1C(=O)OC(C)C)CCCC2	1.2	0.43
Cc1onc(-c2ccccc2Cl)c1C(=O)Nc1ccccc1C(=O)Nc1ccccc1	0.95	-0.68
CC(C)CCNC(=O)CCCN1C(=O)CSc2ncccc21	0.89	-1.5
CC1CCCN(C(=O)c2cn(C3CCCC3)c(=O)c3c2c2ccccc2n3C)C1 (stereo not drawn)	0.99	-0.2
Other entries follow:
SMILES	CBX7 AlphaScr	CBX7 AlphaScr z-score
NC(=O)C1CCN(C(=O)C2CCN(c3nnc(-n4cccc4)s3)CC2)CC1	1.1	1
CCCNC(=O)c1cc(-c2ccc(Cl)cc2)nc2ccccc12	1.2	0.65
Cc1ccn2c(Nc3ccc4c(c3)OCCO4)c(-c3cccc(Cl)c3)nc2c1	0.58	-16
CCC(C)NC(=O)c1cc2c(-c3cccc(OC)c3)nn(C)c2s1 (stereo not drawn)	1.2	2.1
CCOc1ccc(CCNC(=O)c2cc3c(s2)-c2ccccc2OC3)cc1	1.2	2.6
Cc1ccc(-c2n[nH]c(=O)c3ccccc23)cc1S(=O)(=O)NC(C)(C)C	0.94	-1.6
COc1ccc(C(=O)Nc2nnc(CC(C)C)s2)cc1	0.94	-0.72
COc1ccc(C)cc1NC(=O)c1sc2ncn(CC(=O)N3CCCCC3C)c(=O)c2c1C (stereo not drawn)	1	0.86
Cc1ccnc(N2C(=O)c3ccccc3C2Nc2ccc(F)cc2F)c1 (stereo not drawn)	1	1.4
CCOc1ccc2nc(N3CCC(C(=O)NC(C)CC)CC3)sc2c1 (stereo not drawn)	0.97	-0.13
COc1ccccc1NC(=O)CSc1nccn1-c1cc(C)cc(C)c1	0.79	-3.7
CCCOC(=O)c1cccc(Nc2nc(-c3cccnc3)nc3ccccc23)c1	1	0.72
Cc1ccc(NC(=O)c2sc3ncn(CC(=O)N4CCOCC4)c(=O)c3c2C)cc1Cl	0.99	-0.082
COCCCNC(=O)c1cnn2c(C(F)(F)F)cc(-c3ccccc3)nc12	1	0.59
CC(C)N(Cc1ccccc1)C(=O)C1=CCN(S(=O)(=O)c2ccc(F)cc2)CC1	1	0.27

A portion of the library; count on the stated rates, not on these rows.
